GALR2 agonist = GALR2 (human) receptor agonism. activation, %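 (tested at 5 µM)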. O43603. 0.48% of 140,000 active. AID 803. GALR2-expressing cells, agonist activation read-out;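 active means above mean plus 3 SD of all compounds, about 5% in these data, not always enough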;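 further: 0% = vehicle buffer wells and 100% = reference agonist at full effect; tested in CHO reporter cells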
Target sequence (O43603 whole entry, looked up): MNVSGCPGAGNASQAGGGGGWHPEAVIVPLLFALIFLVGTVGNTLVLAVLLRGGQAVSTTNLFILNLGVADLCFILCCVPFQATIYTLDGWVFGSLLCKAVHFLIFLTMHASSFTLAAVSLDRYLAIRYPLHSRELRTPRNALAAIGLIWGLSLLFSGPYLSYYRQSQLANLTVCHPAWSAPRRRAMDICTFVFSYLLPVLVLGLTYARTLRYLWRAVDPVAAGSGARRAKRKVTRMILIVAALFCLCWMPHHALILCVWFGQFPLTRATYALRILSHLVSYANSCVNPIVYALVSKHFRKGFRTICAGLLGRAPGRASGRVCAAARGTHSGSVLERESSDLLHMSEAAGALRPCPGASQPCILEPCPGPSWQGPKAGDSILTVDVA
RGS16-Gao HTS = modulates binding between human RGS16 and Galphao. bead-based flow cytometry RGS16-Galphao binding, fluorescence; actives lie on both sides. 0.38% of 220,000 active. binding response (% of control), % at 10 µM;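 active means below 25% or above 175%, edge rows of some plates excepted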;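 further: Galphao activated by GDP with aluminum fluoride before binding; 100% = wells without compound and 0% = beads without RGS; some results beyond the cut were filed as inactive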
Target sequence (O15492 whole entry, looked up): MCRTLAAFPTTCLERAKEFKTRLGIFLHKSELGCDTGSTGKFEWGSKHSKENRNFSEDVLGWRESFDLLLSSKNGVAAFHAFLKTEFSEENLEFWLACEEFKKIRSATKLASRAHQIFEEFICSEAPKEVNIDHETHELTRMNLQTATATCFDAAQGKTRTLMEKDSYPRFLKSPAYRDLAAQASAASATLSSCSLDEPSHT
Target sequence (P09471 whole entry, looked up): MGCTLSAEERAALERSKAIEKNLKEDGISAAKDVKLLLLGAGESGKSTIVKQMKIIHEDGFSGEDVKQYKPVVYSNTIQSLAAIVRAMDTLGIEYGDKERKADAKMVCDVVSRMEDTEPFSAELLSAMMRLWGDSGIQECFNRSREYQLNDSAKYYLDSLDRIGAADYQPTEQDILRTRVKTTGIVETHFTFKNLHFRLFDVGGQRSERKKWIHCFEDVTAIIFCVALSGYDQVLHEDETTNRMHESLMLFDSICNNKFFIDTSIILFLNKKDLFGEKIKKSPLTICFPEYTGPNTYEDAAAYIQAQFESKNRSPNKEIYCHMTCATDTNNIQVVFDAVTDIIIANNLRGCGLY
HSV augment = increases HSV replication in cells; HSV replication augmentation in cells, fold increase; maximum fold increase; 0.005% of 220,000 active; AID 1956;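 active means peak rise of 1.5-fold or more in the series; tested in PC3 cells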;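 further: first round at 10 µM; read as green reporter fluorescence; hits show the peak of a series up to 25 µM; 1 = signal of infected wells without compound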
PKD1 kinase inh = PKD1 (human) kinase inhibition; AID 797; PKD1 kinase fluorescence polarization assay; inhibition, %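 (about 10 µM by stock and volumes)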; 0.056% of 200,000 active; Q15139;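 active means inhibition of 50% or more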;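 further: controls were vehicle for no effect and a reference inhibitor for full effect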
INS promoter inh = TRM-6 insulin promoter activity inhibition; inhibition, % at 2 µM; 0.9% of 130,000 active; TRM-6 cells (human fetal islet line), insulin promoter-eGFP reporter, imaging; reporter expression induced with tamoxifen;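 active means inhibition above the mean plus 3 SD, with well images judged a real hit on visual review, cut at about 60% in these data, passing the limit was not always enough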
INS promoter inh cell count = second read-out of INS promoter inh, no call of its own (marks repeat the call); normalized cell count, %; measured here: cell count, toxicity; reference of the scale not given here;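 cells exposed to compound for 48 h; stained nuclei by imaging scaled within each plate; lower means fewer cells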
HSV augment primary fold = second read-out of HSV augment, no call of its own (marks repeat the call); fold increase; compound at 10 µM; measured here: primary screen fold increase 10 uM; tested in PC3 cells;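 GFP signal in the first replicate; 1 = infected wells without compound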
* hit, by the source's call; i = inactive; nt = no result given. Random draw from the library; 1.3% or so of the library scored in one or more.

SMILES	GALR2 agonist	RGS16-Gao HTS	HSV augment	HSV augment primary fold	PKD1 kinase inh	INS promoter inh	INS promoter inh cell count
COc1ccc(C2CC(=O)Oc3c(C(CCN4CCCC(C)C4)c4ccc(N(C)C)cc4)c(OC)cc(OC)c32)cc1 (configuration not stated)	nt	100	i	1.1	nt	nt	nt
Cc1[nH]c2ccccc2c1/C=N/NC(=O)CNC(=O)c1ccco1	nt	90	i	0.84	nt	nt	nt
Cc1ccc(-c2cnc(NC(=O)CCC(=O)N3CCCCC3)n2C)cc1	-2.1	98	i	0.7	12	-47	144
CCCn1nnc(NC(=O)c2ccc3ccccc3c2)n1	nt	101	i	0.95	-4	42	89
CCOC(=O)c1cnc2c(N=Nc3ccccc3)c(N)nn2c1N	-1.4	119	i	0.89	-1	nt	nt
O=C1NC(c2ccccc2)=C(c2ccc3ccccc3n2)C(c2ccccc2)N1 (configuration not stated)	0.1	109	i	0.99	-5	-14	101
Cc1noc(C)c1CSc1nc2ccccc2n1C	-2.4	46	i	1	-7	43	98
O=C(Oc1nsnc1N1CCCCC1)N1CCOCC1	-3.8	nt	i	0.74	-1	-25	57
Cc1cc(C)n(C(=O)CSc2ccc(Cl)cc2)n1	-2.1	101	i	1	-6	-3	130
COc1cc(/C=C/C(=O)Nc2ccncc2)cc(OC)c1OC	-1.0	106	i	0.93	0	3	101
CCCCNC(=O)c1cc2cccc([N+](=O)[O-])c2[nH]1	nt	107	i	1.1	nt	nt	nt
Cc1ccc(CNC(=O)C2CCC(=O)N2CCc2ccccc2)cc1 (configuration not stated)	-1.1	99	i	0.93	-7	29	16
Cc1cccc(Nc2nc(N)nc(CN3CCN(Cc4ccc5c(c4)OCO5)CC3)n2)c1	-1.8	98	i	0.91	-5	nt	nt
COc1ccc(/C(O)=C2/C(=O)C(=O)N(CCCC(=O)O)C2c2ccc(OC)c(OC)c2)cc1 (configuration not stated)	-2.9	102	i	1	-3	-16	96
CCCc1[nH]nc2c1C(CCc1ccccc1)C(C#N)=C(N)O2 (configuration not stated)	-1.9	91	i	1.1	-6	nt	nt
Cn1cc(Cl)c(/C=C(\C#N)S(=O)(=O)c2ccccc2)n1	nt	102	i	0.91	nt	nt	nt
COCCOC(=O)C1=C(C)OC(N)=C(C#N)C1c1ccco1 (configuration not stated)	-0.1	96	i	0.85	-6	-33	121
Cc1sc2ncn(CC(=O)NCc3ccco3)c(=O)c2c1-c1ccccc1	nt	100	i	0.89	-2	nt	nt
O=C(N/N=C/c1cccnc1)c1cc(-c2ccccc2OCc2ccccc2)n[nH]1	nt	104	i	0.88	nt	nt	nt
NC(=O)c1coc(-c2ccccc2)n1	nt	109	i	0.96	-5	-25	128
COc1ccc(NC(C)=O)cc1CNC(=O)COc1c(C)c(C)cc(C)c1C	0.1	98	i	1.1	-11	2	69
Fc1ccc(Oc2cc(N3CCOCC3)nc(-c3ccccc3)n2)c(F)c1	-0.1	101	i	0.99	2	13	116
O=Cc1ccccc1OCc1nnsc1Cl	nt	86	i	0.96	2	39	90
CCNC(=S)N(Cc1ccc(OC)cc1)C1CC(=O)N(c2ccc(OCC)cc2)C1=O (configuration not stated)	-3.1	nt	i	0.84	2	-8	114
CC(NC(=O)c1cc2c(=O)n(C)c3ccccc3c2n1C)c1ccc2c(c1)OCCO2 (configuration not stated)	1.6	nt	i	0.98	8	nt	nt
CCCCOC(=O)Nc1ccc(C(C)C)cc1	-1.7	109	i	0.78	4	44	100
NNc1nc2sc3c(c2c(=O)n1-c1ccccc1)CCCC3	nt	104	i	0.88	nt	nt	nt
CN(CCc1ccccn1)C(=S)NC(=O)c1ccco1	nt	103	i	0.9	-4	0	76
CCOC(=O)NC(Nc1nc2ccccc2s1)(C(=O)OCC)C(F)(F)F (configuration not stated)	-1.1	101	i	0.88	-13	nt	nt
O=C1C(Cl)=C(Nc2ccc(O)cc2)C(=O)c2ccccc21	nt	86	i	0.64	nt	nt	nt
O=C(CSC1=NNC(c2ccccn2)S1)Nc1ccc(C(F)(F)F)cc1 (configuration not stated)	nt	96	i	0.85	nt	nt	nt
O=c1cc(-c2ccc(O)c(O)c2)oc2c(C3O[C@H](CO)[C@@H](O)[C@H](O)[C@H]3O)c(O)cc(O)c12 (some centres not stated)	-1.7	99	i	0.75	22	-10	100
O=C(NCCc1cn2ccsc2n1)C1CCCCC1	-2.6	105	i	0.98	-7	nt	nt
O=C(Nc1ccc(C(=O)N2CCOCC2)cc1)c1cccc([N+](=O)[O-])c1	nt	100	i	1	-4	nt	nt
Cc1cccc(C)c1NC(=O)C(NC=O)c1ccc(N(C)C)cc1 (configuration not stated)	-1.7	98	i	1.1	-3	-17	71
Cc1ccc(/C=N\NC(=O)Cn2c(C)nc3ccccc32)o1	-4.0	104	i	1.1	4	nt	nt
COc1ccccc1/C=C1\Cc2ccccc2C1=O	nt	105	i	0.97	nt	nt	nt
CC(=O)c1c(N2CCC(C(N)=O)CC2)nc(=S)n(-c2ccccc2)c1C	-0.9	124	i	0.84	-1	14	151
Cn1nc(C(=O)Nc2ccc3c(c2)OCCO3)cc1C(=O)O	nt	100	i	0.87	-3	nt	nt
CC(C)N1CCN(Cc2cccc(-n3cccn3)c2)CC1CCO (configuration not stated)	nt	104	i	1	-8	nt	nt
CCOC(=O)c1nn(-c2ccccc2)c(=O)c2c(N)scc12	-2.0	100	i	0.95	-7	68	118
Cc1cc(C(F)F)n2nc(C(=O)Nc3ccc(S(=O)(=O)N4CCCC4)cc3)nc2n1	-0.4	85	i	0.95	-7	-346	52
COc1ccc(C2C(C(=O)Nc3cccnc3)=C(C)Nc3nc(-c4cccs4)nn32)cc1OC (configuration not stated)	-1.2	104	i	0.95	-3	nt	nt
CCN(CC)C(=O)CSc1nc2c(sc(=S)n2-c2ccccc2)c(=O)[nH]1	nt	100	i	1.1	-3	nt	nt
C/C(=N\NS(C)(=O)=O)c1ccccc1	-1.7	99	i	0.9	-7	67	84
O=C1[C@@H]2Cc3ccccc3CN2C(=O)N1c1cccc(F)c1	2.0	109	i	0.7	-5	43	81
O=C(NNC(=S)Nc1ccc(F)c(Cl)c1)c1ccccc1Br	nt	104	i	1	-6	nt	nt
O=[N+]([O-])c1ccn(-c2nc(-c3ccccc3)cc(C(F)(F)F)n2)n1	nt	102	i	0.84	-1	33	129
CN1C(=O)/C(=C/c2ccc3c(c2)OCO3)N=C1c1ccccc1	-2.2	108	i	0.93	-5	-23	116
COc1ccc(CN(Cc2cc3cccc(C)c3n3nnnc23)C(=O)N2CCOCC2)cc1	nt	101	i	0.92	-3	-5	116
C=CCNC(=S)NNC(=O)c1ccc(Br)cc1	-2.1	101	i	0.96	5	nt	nt
Cc1ccc(-c2nnc(SCC(=O)CC(=O)Nc3ccccc3)n2C)cc1	-1.7	77	i	1.1	0	-310	61
O=C(NCCCN1CCCCCC1)C1CC(=O)N(C2CCCC2)C1 (configuration not stated)	-2.0	103	i	1.1	-4	19	77
COc1ccc(Nc2cc(C(=O)NCCCN3CCN(C)CC3)c3ccccc3n2)c(OC)c1	-1.8	172	i	0.88	-14	27	117
CCSc1nc(-c2ccc(OC)cc2)cc(-c2ccc(OC)cc2)c1C#N	-2.9	100	i	0.89	-3	0	80
CCN(CC(=O)Nc1ccccc1Br)C1CCCCC1	nt	103	i	1	0	nt	nt
CCOC(=O)CCC(=O)Nc1ccc(S(=O)(=O)N2CCC(C)CC2)cc1	-1.7	102	i	0.93	-5	12	125
O=C(CSc1nnc2ccccn12)NNC(=O)c1ccc([N+](=O)[O-])cc1	nt	102	i	1	nt	nt	nt
COC(=O)c1sc(C(C)(C)C)cc1CS(=O)(=O)c1ccc(Cl)cc1	nt	95	i	1	nt	nt	nt
COc1ccc(N2C(=O)c3ccccc3NC2c2ccc(OC)c(CN3CCOCC3)c2)cc1 (configuration not stated)	nt	108	i	0.91	nt	nt	nt

Later entries:
SMILES	GALR2 agonist	RGS16-Gao HTS	HSV augment	HSV augment primary fold	PKD1 kinase inh	INS promoter inh	INS promoter inh cell count
CCN(CC)S(=O)(=O)c1cccc(-c2nnc(SCC(N)=O)n2N)c1	nt	101	i	1.1	nt	nt	nt
C=CCOc1c2ccc(C(=O)N(CC)c3ccc(OC)cc3)cc2nn1C	-0.1	94	i	0.98	2	20	106
COc1ccc(N2C(=O)CCC(C(=O)NCCN3CCOCC3)C2c2ccc(OC)c(OC)c2)cc1 (configuration not stated)	-0.4	98	i	0.84	-5	-38	91
O=C(O)CC1(Cc2nc(-c3cccs3)no2)CCCC1	-0.7	106	i	0.96	-19	nt	nt
O=C(CCCn1c(SCC(=O)c2ccc(F)cc2)nc2ccccc2c1=O)NCc1ccco1	-0.5	106	i	0.52	1	-22	57
Cc1cc([N+](=O)[O-])nn1CCCC(=O)Nc1c(C)n(C)n(-c2ccccc2)c1=O	nt	116	i	1.1	-7	38	28
COC(=O)CCNCCSc1nnc(-c2ccco2)n1Cc1ccccc1	nt	97	i	1	nt	nt	nt
CCOC(=O)N1CCN(C(=O)C2CCN(CC3CCCCC3)CC2)CC1	-0.8	108	nt	nt	-1	-83	107
Cc1cc(C(=O)COc2cccnc2[N+](=O)[O-])c(C)n1-c1ccccc1F	nt	88	i	1.2	nt	nt	nt
O=C(Cn1cnc2c(nnn2Cc2ccccc2)c1=O)c1ccc(Cl)cc1	-1.6	105	i	0.81	7	nt	nt
Cn1nc(C(C)(C)C)cc1C(=O)O	nt	102	i	0.97	1	-27	69
C#CCOCCOCCOCCNc1nc(N2CCN(C(=O)[C@H]([C@@H](C)CC)n3cc([C@@H](N)Cc4ccc(O)cc4)nn3)CC2)nc(N2CCN(C(=O)[C@H](Cc3ccc(O)cc3)n3cc([C@@H](N)C(C)CC)nn3)CC2)n1 (some centres not stated)	nt	95	i	0.91	5	nt	nt
Cc1ccc(-c2nnn(CC(=O)NCc3ccccc3)n2)c(-n2cnnn2)c1	-2.5	97	i	0.97	10	20	44
Cc1ccc(C(=O)Nc2ccc(N3CCOCC3)cc2)cc1	-2.3	91	i	0.99	-16	nt	nt
Cc1ccc(-c2c(C(=O)Nc3ccccc3C)c(C)[nH]c(=S)c2C#N)o1	nt	101	i	1.7	3	nt	nt

Six entries from above, with values under each structure:
Fields: GALR2 agonist | RGS16-Gao HTS | HSV augment | HSV augment primary fold | PKD1 kinase inh | INS promoter inh | INS promoter inh cell count
> O=C(O)CC1(Cc2nc(-c3cccs3)no2)CCCC1
→ -0.7 | 106 | i | 0.96 | -19 | nt | nt
> O=C(CCCn1c(SCC(=O)c2ccc(F)cc2)nc2ccccc2c1=O)NCc1ccco1
→ -0.5 | 106 | i | 0.52 | 1 | -22 | 57
> Cc1cc([N+](=O)[O-])nn1CCCC(=O)Nc1c(C)n(C)n(-c2ccccc2)c1=O
→ nt | 116 | i | 1.1 | -7 | 38 | 28
> COC(=O)CCNCCSc1nnc(-c2ccco2)n1Cc1ccccc1
→ nt | 97 | i | 1 | nt | nt | nt
> CCOC(=O)N1CCN(C(=O)C2CCN(CC3CCCCC3)CC2)CC1
→ -0.8 | 108 | nt | nt | -1 | -83 | 107
> Cc1cc(C(=O)COc2cccnc2[N+](=O)[O-])c(C)n1-c1ccccc1F
→ nt | 88 | i | 1.2 | nt | nt | nt

Following part
SMILES	GALR2 agonist	RGS16-Gao HTS	HSV augment	HSV augment primary fold	PKD1 kinase inh	INS promoter inh	INS promoter inh cell count
O=C(Nc1nc(-c2ccccn2)cs1)c1ncc(Cl)c(Cl)c1Cl	-0.6	53	i	0.79	-4	34	155
Cc1ccccc1Nc1nc(N)nc(CN2CCN(c3ccccn3)CC2)n1	-0.7	138	i	0.83	-5	6	108
COc1cc(CNCCSc2nnnn2C)cc(OC)c1OC	-0.3	111	i	0.9	-2	54	91
CCOC(=O)c1c(/N=C/c2cc([N+](=O)[O-])ccc2O)sc(C)c1C	-2.0	127	i	1.3	-4	-7	43
O=C(COc1ncnc2scc(-c3ccccc3)c12)NCCN1C(=O)CSC1=O	nt	100	i	1.1	2	nt	nt
Cc1nc2c(ccc3nc(NC(=O)C4CC4)sc32)s1	nt	103	i	0.95	3	-7	143
CCCc1cc(=O)n2[nH]c(NCc3c(Cl)cccc3Cl)nc2n1	-0.9	90	i	0.66	-9	nt	nt
COc1cccc(/C=N/N2C(=O)C3C4c5ccccc5C(c5ccccc54)C3C2=O)c1OC (configuration not stated)	-1.7	98	i	0.87	-3	30	72
CC(NC(=O)C1CCN(S(=O)(=O)c2cnc[nH]2)CC1)c1ccccc1 (configuration not stated)	-2.9	119	i	1	3	0	61
CCCc1ncc(C(O)c2cccc3ccccc23)n1C (configuration not stated)	-2.6	99	i	0.96	-7	-261	84
CC1(C)CC(=O)C2=C(C1)N(c1cccc(Cl)c1)C(=O)NC2(C(F)(F)F)C(F)(F)F	-0.1	95	i	1	-6	-64	157
COc1ccc(CC(=O)NCc2ccccc2)cc1S(=O)(=O)N1CCOCC1	-1.4	101	i	0.63	-12	11	103
